Bioassay records from PubChem.
Sfp PPTase inh – qHTS Assay for Inhibitors of Bacillus subtilis Sfp phosphopantetheinyl transferase (PPTase). Biochemical Sfp PPTase activity, qHTS. AID 1490, 2009. 310,000 tested, 3.5% active. 4'-phosphopantetheinyl transferase ffp (Bacillus subtilis), Q9F4F7. Potency, µM, for the others: max response, negative = inhibition, most hits filed as inhibitors; active = well fitted inhibition curve with a large enough effect; inconclusive = small, poorly fitted or top-dose-only effect, or another doubt; inactive = no such curve, though single readings can be large or run the other way;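 note: the enzyme is Sfp with the accession as filed and its product quenches rhodamine fluorescence; potency is the fitted concentration of half-maximal effect; 0% = enzyme reaction without inhibitor and -100% = no enzyme wells; top concentration of the series not given in the record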
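Buffer: 50 mM Hepes-Na pH 7.6, 10 mM MgCl2, 0.01% Nonidet P-40, 0.01% BSA. Enzyme 15 nM, pre-exposed to compound 15 min; substrates then added and fluorescence change tracked over 30 min.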
Menin-MLL FL inh – qHTS Assay for Inhibitors Targeting the Menin-MLL Interaction in MLL Related Leukemias: Competition With Fluorescein Labeled MLL-derived Peptide; Fluorescence polarization, fluorescein-MLL peptide displacement from menin; FP activity change, % at 61.4 µM; 290,000 tested, under 10 active; inconclusive = falling polarisation curve, or a change in total fluorescence; inactive = total fluorescence flat and polarisation flat or rising; no compound was filed as active; the % refers to the polarisation; negative = inhibition;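 note: % of control where 0% means no effect; inhibitors lower the polarisation; unlabelled MLL peptide was the positive control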
PINK1 expr mod – A Quantitative High throughput Screen to Identify Chemical Modulators of PINK1 Expression. PINK1 immunofluorescence, high-content cytometry, 24 h. 410,000 tested, 0.2% active. Potency, µM (series often up to 76.6 µM), for inactives: top-dose activation (PINK1 increase), hits mostly activators; active = well fitted activation curve with a large enough effect; inconclusive = small, poorly fitted or top-dose-only effect; inactive = flat fitted curve, though single readings scatter; cell line not stated here;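 note: potency is the fitted concentration of half-maximal effect; % of control where 0% means no effect; nearly all actives have a fitted effect of over 65% in size; a mitochondrial uncoupler was the plate control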
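Cells are seeded, rested 12 hours, then given compound at five concentrations or DMSO for 24 hours. After fixation, blocking and antibody staining, PINK1 amount and mitochondrial localization are scored; CCCP serves as control.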
TRPML1 agonist – qHTS for Agonists of the Human Mucolipin Transient Receptor Potential 1 (TRPML1); Mucolipin-1 (Homo sapiens), Q9GZU1; AID 624414, 2012; 410,000 tested, 0.12% active; activation, % (concentration not given with the values); TRPML1-expressing cells, Ca2+ dye fluorescence, FDSS; host cell line not named in the record; reference of the full effect not given here; in the data active = activation above about 50%; inconclusive = about 30% to 50%; inactive = below about 30%; note: 0% is about no effect; the text of the record puts the active cut at 80%
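Tet-induced TRPML1-DL cells, 1,500 per well, cultured overnight, were loaded with a no-wash Ca2+ dye for 45–90 min. Calcium fluorescence was recorded on the FDSS for 110 s after compound addition, before the EC80 agonist (4 uM 54-4) was added.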
TRPML1 blocker – qHTS for Inhibitors of the Human Mucolipin Transient Receptor Potential 1 (TRPML1); Mucolipin-1 (Homo sapiens), Q9GZU1; TRPML1-inducible cells, Ca2+ dye fluorescence, FDSS; hits give low values; inhibition of EC80 agonist-evoked calcium signal; activity change, negative = inhibition, % (test concentration not listed); 390,000 tested, 0.02% active; AID 624415, 2012; in the data active means activity change below about -50%; inconclusive means about -30% to -50%; inactive means above about -30%;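 note: stimulus is agonist 54-4 at its EC80 concentration; % is set by controls: 0 for no effect and ±100 for the full control effect; compound concentration not given in the record; the text of the record puts the active cut at -80%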
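Tet-induced TRPML1-DL cells loaded with Ca8 no-wash calcium dye were read kinetically on FDSS. Compound addition was followed by EC80 agonist 54-4 (4 uM final); inhibition was read over 110 s.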
ClpP mod – qHTS Assay for Activators of ClpP | ATP-dependent Clp protease proteolytic subunit (Bacillus subtilis (strain 168)), P80244 | purified B. subtilis ClpP, FRET peptide cleavage, 20 min | Potency, µM (doses to about 57.5 µM), without a hit: at the highest dose activity change, negative = active | 340,000 tested, 1.9% active; active = well fitted falling curve with a large enough effect; inconclusive = small, poorly fitted or top-dose-only effect; inactive = no such curve, though single readings can be large or run the other way; note: potency is the fitted concentration of half-maximal effect; the source files actives as falling curves though it sought activators and does not explain the sign; nearly all actives have a fitted effect of over 65% in size; many hits overshoot -100%
Target sequence (P80244 whole entry, looked up): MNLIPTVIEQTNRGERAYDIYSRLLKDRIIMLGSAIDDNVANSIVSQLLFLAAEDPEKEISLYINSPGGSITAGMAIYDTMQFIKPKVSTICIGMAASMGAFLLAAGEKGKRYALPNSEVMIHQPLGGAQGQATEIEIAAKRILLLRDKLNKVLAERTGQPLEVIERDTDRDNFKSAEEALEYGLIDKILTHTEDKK
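FRET quenching reversal measured ClpP activation: 10 microg/mL B. subtilis ClpP at pH 8 with the FRET-FV decapeptide, read at 430 nm after 320 nm excitation. The 20-min minus 0-min signal was scaled between DMSO/no-enzyme wells and ADEP (5.8 microM final).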
TRPV1 potentiator – HTS Assay for Compounds that Act as Potentiators of the Vanilloid Receptor 1 | TRPV1-expressing cells, Fluo-8 calcium influx, capsaicin EC20 potentiation; host cell line not named in the record; control for the full effect not named in the record | potentiation, % at 8.33 µM | 320,000 tested, 0.02% active | AID 540277, 2011; active means potentiation above 80%; inconclusive means 30% to 80%; inactive means below 30%; note: 0% is about no effect
Target sequence (Q8NER1 whole entry, looked up): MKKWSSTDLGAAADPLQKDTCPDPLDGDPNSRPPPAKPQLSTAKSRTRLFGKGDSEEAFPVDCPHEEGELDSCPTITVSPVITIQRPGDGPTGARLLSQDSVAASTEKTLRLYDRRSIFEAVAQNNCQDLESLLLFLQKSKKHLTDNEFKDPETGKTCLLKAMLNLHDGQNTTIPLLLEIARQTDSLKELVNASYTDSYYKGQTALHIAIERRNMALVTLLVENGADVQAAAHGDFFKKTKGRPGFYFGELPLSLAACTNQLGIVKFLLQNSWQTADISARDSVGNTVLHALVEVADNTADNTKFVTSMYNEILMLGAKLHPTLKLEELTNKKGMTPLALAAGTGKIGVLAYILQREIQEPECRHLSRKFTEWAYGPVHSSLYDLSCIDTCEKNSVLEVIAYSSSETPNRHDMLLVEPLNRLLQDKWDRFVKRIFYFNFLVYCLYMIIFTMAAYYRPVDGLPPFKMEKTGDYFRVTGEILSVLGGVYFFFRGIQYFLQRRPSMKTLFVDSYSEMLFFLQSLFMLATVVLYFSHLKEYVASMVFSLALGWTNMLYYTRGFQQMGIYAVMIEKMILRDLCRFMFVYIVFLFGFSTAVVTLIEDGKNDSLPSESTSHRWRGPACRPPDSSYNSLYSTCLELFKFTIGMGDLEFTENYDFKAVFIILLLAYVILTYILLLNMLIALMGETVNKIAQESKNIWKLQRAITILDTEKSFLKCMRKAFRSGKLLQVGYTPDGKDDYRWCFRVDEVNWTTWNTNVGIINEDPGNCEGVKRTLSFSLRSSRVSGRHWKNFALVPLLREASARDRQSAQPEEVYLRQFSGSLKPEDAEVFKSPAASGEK
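Fluo-8 calcium influx in TRPV1-expressing cells, kinetic read (ex 480/em 520 nm). Compound added and read 3 min for agonist activity, followed by capsaicin at EC20 final and 2 min further read for enhancement.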
Starred values were filed as active, the others as inactive; u = inconclusive; x = not tested or not shown; & = joins results of further samples; [ ] = remark or other dose. Rows were taken by chance; overall some 4.4% were active at least once.

SMILES	Sfp PPTase inh	Menin-MLL FL inh	PINK1 expr mod	TRPML1 agonist	TRPML1 blocker	ClpP mod	TRPV1 potentiator
O=[N+]([O-])c1ccccc1Oc1ncccc1[N+](=O)[O-]	12%	-0.9	0.4%	-0.1	-14	0.0%	12
COc1ccc(CCNC(=O)C2CCCN(S(=O)(=O)c3ccc(F)cc3)C2)cc1 (configuration not stated)	6%	x	4.9%	-0.5	8	0.9%	-2
COc1cccc(-c2n[nH]c(=S)n2Cc2ccco2)c1OC	-6%	-1.0	1.8%[38.3 µM]	-0.3	6	-0.4%	-1
CNc1nc(N)c([N+](=O)[O-])c(Nc2ccccc2OC)n1	-2%	-0.7	-1.4%	-0.6	-9	-2.2%	6
Cc1ccc(S(=O)(=O)N2CCOCC2)cc1C(=O)Nc1ccccn1	15%	3.2	-0.5%	0.3	8	-1.3%	4
O=C(Cn1c(C(=O)NCc2ccco2)cc2sccc21)c1ccccc1	17%	1.0	4.8%	2.3	-3	-5.9%	8
Cc1noc(C)c1NC(=O)Nc1ccc2c(c1)C(=O)N([C@H](C)CO)C[C@H](C)[C@@H](CN(C)S(C)(=O)=O)O2	x	x	1.0%	-0.2	-13	-4.1%	x
CCC1=Nc2cc(C(=O)NC3CCCC3)ccc2Sc2ccc(Cl)cc21	x	x	3.4%	0.1	23	-0.2%	x
Cc1cc(NC(=O)CSc2nc3sc(C)c(C)c3c(=O)n2C2CCCC2)no1	7%	16	x	0.7	-9	-1.8%	2
O=C(CCn1nnc2ccccc21)N1CCC(O)(c2cccc(F)c2)CC1	3%	-0.3	1.0%	4.3	-5	-2.9%	-1
O=C(OCCN1CCCCC1)c1ccccc1Br	-10%	4.3	-2.2%	1.4	2	1.0%	-11
O=C(Cc1cccs1)Nc1ccc(F)cc1	7%	0.8	1.6%	x	x	1.9%	-24
Cc1ccc(-c2csc3ncnc(NCCC(=O)O)c23)cc1	4%	0.5	2.7%	0.0	7	x	-3
CC(=O)N1CCc2cc(N=NC3=C(O)CC(C)(C)CC3=O)ccc21	-1%	u	1.4%	-0.4	27	0.1%	-11
Cc1cccc(NC(=O)CC2(CC(=O)O)CCCC2)c1	16%	1.4	-2.5%	0.8	5	-0.1%	1

Exported as a markdown table: part of the list above.
| compound | Sfp PPTase inh | Menin-MLL FL inh | PINK1 expr mod | TRPML1 agonist | TRPML1 blocker | ClpP mod | TRPV1 potentiator |
| --- | --- | --- | --- | --- | --- | --- | --- |
| CC(=O)N1CCc2cc(N=NC3=C(O)CC(C)(C)CC3=O)ccc21 | -1% | u | 1.4% | -0.4 | 27 | 0.1% | -11 |
| COc1cccc(-c2n[nH]c(=S)n2Cc2ccco2)c1OC | -6% | -1.0 | 1.8%[38.3 µM] | -0.3 | 6 | -0.4% | -1 |
| Cc1noc(C)c1NC(=O)Nc1ccc2c(c1)C(=O)N([C@H](C)CO)C[C@H](C)[C@@H](CN(C)S(C)(=O)=O)O2 | x | x | 1.0% | -0.2 | -13 | -4.1% | x |
| CNc1nc(N)c([N+](=O)[O-])c(Nc2ccccc2OC)n1 | -2% | -0.7 | -1.4% | -0.6 | -9 | -2.2% | 6 |
| O=C(OCCN1CCCCC1)c1ccccc1Br | -10% | 4.3 | -2.2% | 1.4 | 2 | 1.0% | -11 |

Next part
SMILES	Sfp PPTase inh	Menin-MLL FL inh	PINK1 expr mod	TRPML1 agonist	TRPML1 blocker	ClpP mod	TRPV1 potentiator
Cc1cc(C)nc(CCNC(=O)CC2C(=O)NCCN2Cc2ccccc2)n1 (configuration not stated)	9%	-13	0.4%	-0.5	6	x	-10
CC1=C(C(=O)OCc2ccccc2)C(c2ccccc2OS(=O)(=O)c2ccc([N+](=O)[O-])cc2)NC(=O)N1CCCC(=O)O (configuration not stated)	x	x	-0.8%	-0.4	1	-1.0%	x
C=CCn1c(SCC(=O)Nc2ccc3c(c2)OCO3)nnc1-c1ccccc1O	4%	0.2	3.0%[38.3 µM]	4.5	25	-0.2%	8
C=CCN1C(=O)CN=C1Nc1ccccc1	16%	2.4	2.2%	0.3	-8	-6.8%	-6
Cn1c(=O)c2c(-c3ccccc3)n(N3CCOCC3)cc2n(C)c1=O	8%	4.7	-0.6%	-0.6	10	-10%	-18
O=C(OC1CCN(c2ccc([N+](=O)[O-])cc2)CC1)c1ccccc1	8%	3.3	x	2.2	0	-2.5%	-7
O=C(NNC(=O)c1cccs1)c1ccc(Cl)c(Cl)c1	3%	4.7	-0.4%	2.7	-11	x	-5
CCn1cc(C(=O)NCc2ccncc2)c(=O)c2cc(F)c(N3CCN(C(=O)c4ccco4)CC3)cc21	7%	-1.7	0.8%	0.0	-6	x	-6
COC(=O)c1[nH]c2ccccc2c1NC(=O)/C=C/c1ccc2c(c1)OCO2	-17%	-2.8	u	-0.4	-4	1.9%	-5
CCC1(C)Cc2c(sc3nc(NC)n(C)c(=O)c23)CO1 (configuration not stated)	u	-1.5	-0.8%	-1.1	-8	14µM*	4
Cc1ccc(C)c(N(CC(=O)Nc2cc(Cl)ccc2Oc2ccccc2)S(C)(=O)=O)c1	13%	1.0	0.9%	1.8	4	-6.4%	13
Cc1ccc(NC(=O)CN2CCN(C)CC2)cc1Br	-34%	-2.9	-0.1%	x	x	-0.7%	-1
O=C(/C=C/c1ccc(Cl)cc1)N(Cc1ccccc1)c1ccccn1	15%	-0.5	0.5%	3.7	17	x	-3
CC12CCCCC1NS(=O)(=O)OC2 (configuration not stated)	12%	-1.8	-0.4%	-0.6	-3	0.8%	-2
O=C(Nc1nc2cc3c(cc2s1)OCCO3)c1ccc(N2C(=O)CCC2=O)cc1	14µM*	12	5.8%	-0.5	0	-0.9%	-2
CCCCOC(=O)CSc1n[nH]c(=O)[nH]c1=O	-5%	-3.0	3.1%	-0.9	-9	3.2%	-11
O=C(O)Cc1ccc(NC(=O)Nc2ccc3c(c2)OCO3)cc1	14%	-2.5	-1.5%	0.2	-1	-3.0%	-6
CSC(C1CCCC1)n1nnc2ccccc21 (configuration not stated)	x	x	4.0%	1.4	12	0.4%	-7
CNC(=O)/C(C#N)=C/c1ccc(-c2ccc(Cl)cc2)o1	0%	-6.7	-0.1%	0.6	4	x	3
CCOc1ccccc1CNC(=O)C1CCN(c2nc3ccccc3nc2C(F)(F)F)CC1	x	x	1.4%	-0.5	2	-0.6%	x
Clc1ccc(-c2cnc3ccccc3n2)cc1	12%	2.5	-0.2%	1.2	14	-5.2%	-6
Cc1ccccc1S(=O)(=O)Cc1ccc(C(=O)NC2CCCCC2)o1	17%	-0.2	-0.1%&-1.1%	-0.8&2.8	4&-3	-0.1%&-3.9%	5
Nc1nc(NC(=O)/C=C\C(=O)O)nn1-c1ccccc1	-8%	-6.7	2.8%	-0.1	4	x	7
CCCCNc1c(-c2ccc(SC(C)CC)cc2)nc2ccc(Cl)cn12 (configuration not stated)	x	x	2.2%	1.5	x	u	x
O=C(/C=C1\NCC2c3ccccc3CCN2C1=O)c1ccccc1 (configuration not stated)	-19%	0.3	1.2%	0.5	1	5.7%	-3
Cn1c(=O)n(C)c2cc(CNc3ccc(N4CCOCC4)c(C(=O)O)c3)ccc21	13%	0.0	1.8%	0.4	1	u	1
CCCNc1c(NS(=O)(=O)c2ccc(C(C)(C)C)cc2)c(=O)oc2ccccc12	17%	2.2	-1.0%	2.8	18	-11%	-15
Cc1cc(C)n2nc(SCC(=O)Nc3ccc(F)cc3)nc2n1	-1%	-1.1	0.3%	1.0	-19	-3.0%	x
COc1ccc(C2CN=NC2C(=O)c2ccccc2)cc1 (configuration not stated)	-2%	8.6	6.1%	-0.1	-16	2.2%	2
NCC1C2CCC(O2)C1CO (configuration not stated)	x	x	-0.5%	-0.6	-4	0.9%	x
Cc1ccc(N2CCN(C(=O)c3cn(C)c4ccc(S(=O)(=O)N(C)C)cc4c3=O)CC2C)cc1 (configuration not stated)	x	x	1.2%	-0.9	3	-5.1%	x
Cc1ccc(NC(=O)N2CC3CCCN3c3ccccc32)c(C)c1 (configuration not stated)	x	x	-1.6%	-0.5	-5	-3.8%	x
CCOC(=O)C(C(=O)N(C)C)c1ncc(C(F)(F)F)cc1Cl (configuration not stated)	-5%	5.0	0.0%	0.7	-13	2.7%	u
Cn1nnc(NC(=O)c2ccc(Br)o2)n1	18%	x	0.5%	0.5	-9	-15%	-5
CN(CC(=O)Nc1ccc(Cl)cc1)C(=O)c1cccc(S(=O)(=O)NCc2ccccc2)c1	1%	x	2.4%	0.0	1	-2.9%	11
C/C(=N\NC(=O)C1COc2ccccc2O1)c1ccc(C)o1 (configuration not stated)	8%	-1.2	-4.7%	1.7	8	1.1%	11
Cc1cccc(CNc2cc(-c3ccc(N(C)C)cc3)ncn2)c1	-28%	-1.6	-1.3%	x	x	x	x
COC(=O)c1ccccc1NC(=O)c1cc(=O)c2ccc(C)c(C)c2o1	x	x	2.4%	-0.6	-10	-0.4%	x
NC(=O)C1=C[C@H](c2csc3ccccc23)C[C@H](OCCCCO)O1	-11%	6.2	2.7%	-0.4	-3	0.2%	1
CCOc1ccccc1NC(=S)NCc1ccco1	-7%	-2.9	-0.2%	-0.8	-4	-1.0%	21
CC(=O)NCCNC(=O)C1CCC(CNc2nc(=S)[nH]c3ccccc23)CC1 (configuration not stated)	0%	-1.3	-0.4%	2.3	26	-2.3%	-21
Cc1cccc(NC(=O)CSc2nnc(-c3cnccn3)n2Cc2ccco2)c1	-2%	2.1	-1.6%	2.1	-18	-1.6%	7
CCOc1ccc(C2C(C#N)=C(N)N(c3sc4c(c3C#N)CCCC4)C3=C2C(=O)CCC3)cc1 (configuration not stated)	10%	15	3.6%	3.1	2	3.2%	1
N#Cc1ccc(/C=C(\C(=O)C(=O)O)c2ccc3ccccc3n2)cc1	-6%	u	0.1%	1.0	-5	-28%	11
CSc1nc(N)c(C#N)c(-c2ccc(Cl)cc2)c1C#N	-10%	2.2	2.6%	0.3	5	13%	-3
CCN(CC(=O)Nc1c(F)cccc1F)C(=O)c1ccccc1F	9%	0.3	-0.4%	0.9	1	-1.3%	-8
